PMP22 txn prim = modulates PMP22 transcription in S16 Schwann cells; S16 Pmp22-F2sN Schwann cells (luciferase reporters placed in the Pmp22 gene), FLuc/NLuc coincidence luminescence, 24 h; Potency, µM (titrated, usually from 57.5 µM), inactives show top-dose activity change, negative = inhibition, usual class: inhibitors; 43,000 tested, 2% active; AID 1508649; active = clear falling dose curves in both reporters; inconclusive = both reporters move, but less clearly or upward; inactive = either reporter flat; the % is the NLuc reporter signal; note: % is set by controls: 0 for no effect and ±100 for the full control effect; some results filed as inactive show a strong effect at the top dose
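Transcriptional readout in edited S16(c9) cells: two luciferases reported from the Pmp22 locus, measured in turn after 24 h compound incubation.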
HTT prom inh = HTT promoter inhibition. HEK293 HTT promoter firefly luciferase reporter (activity 0% = vehicle and -100% = no light), 24 h. Potency, µM (series often up to 57.5 µM), inactives show at the top dose activity change, negative = inhibition, actives largely listed as inhibitors. 48,000 tested, 0.93% active; active = well fitted inhibition curve with a large enough effect; inconclusive = small, poorly fitted or top-dose-only effect; inactive = no such curve, though single readings can be large or run the other way; note: nearly all actives have a fitted effect of over 50% in size
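Firefly luciferase readout (Dual-Glo, 10 min RT) after 24 h, 37 °C compound exposure (final up to 57.5 uM) of HEK293 reporter cells cultured 24 h beforehand; PTC124 at 50 uM final as control inhibitor; activity scaled vehicle 0%, zero RLU -100%.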
* marks the source's active call; other numbers are inactive results; ? = inconclusive; / = not tested or not shown; [ ] = another dose, or the depositor's remark. Potency is the fitted concentration of half-maximal effect.

cpd	canonical_smiles	PMP22 txn prim	HTT prom inh
1	O=C(NCc1ccc(Cl)cc1)C1CCCN(C(=O)c2cnn(-c3ccc(F)cc3)c2-n2cccc2)C1 (stereo unspecified)	?	?
2	Cc1ccc(-n2ncc(C(=O)N3CCN(c4ccccn4)CC3)c2C2CCN(C(=O)OC(C)(C)C)CC2)cc1C	6%	2%
3	CCN(CC)CCCNC(=O)Cn1nc(C)n2c(cc3sccc32)c1=O	1%	-4%
4	COc1cc(NC(=O)CN2C(=O)CCc3cc(Br)ccc32)cc(OC)c1OC	?	-18%
5	Cc1nn2c(=O)cc(COC(=O)c3ccc(NC(=O)COc4ccc(Cl)cc4)cc3)nc2s1	?	?
6	O=C(c1ccc2c(c1)OCCO2)N(Cc1cccnc1)c1nc2c(Cl)cccc2s1	?	?
7	COCCCNC(=O)CCCN1C(=O)CCn2nc(-c3cccn3C)cc21	?	9%
8	Cc1ccc2c(c1)-c1c(cnc3cc(-c4ccccc4)nn13)CO2	-13%	7%
9	CC(=O)N[C@@H](CO)C(=O)N[C@@H](CC(=O)O)C(=O)N[C@@H](CCCCN)C(=O)N1CCC[C@H]1C(=O)O	/	6%
10	CCCCOc1ccccc1C(=O)N(Cc1sccc1C)C1CCS(=O)(=O)C1 (stereo unspecified)	8%	-18%
11	CCCOc1ccc(Oc2nc(NCC(C)C)nc(N3CCOCC3)n2)nn1	-6%	15%
12	Cc1ccc(NC(=O)c2cc(S(=O)(=O)N3CCCc4ccccc43)ccc2F)cc1F	?	?
13	CCOC(=O)N1CCN(S(=O)(=O)N2CCCC(C(=O)NCc3ccc(OC)cc3OC)C2)CC1 (stereo unspecified)	-17%	?
14	COc1ccc(CNC(=O)c2cccn2-c2nnc(N3CCCC3)s2)c(OC)c1	0%	-22%
15	Cc1ccc(Cn2c(=O)n(CCc3ccccc3)c(=O)c3c(C)c(C)sc32)cc1	8%	-21%
16	Cc1ccc(C(=O)c2oc3ccccc3c2NC(=O)C(C)Oc2ccccc2Cl)cc1 (stereo unspecified)	-18%	4%
17	Cc1cccc(OCC(=O)Nc2cccc3cccnc23)c1C	-39%	1%
18	COC(=O)C1CCN(S(=O)(=O)c2cc3c4c(c2)C(C)C(=O)N4CCC3)CC1 (stereo unspecified)	-6%	-11%
19	Cn1c(=O)n(C)c2cc(N3CCOCC3)c(NS(=O)(=O)c3ccc(F)cc3)cc21	-11%	1%
20	COc1cc(C(=O)OCc2cc(=O)n3nc(C(C)C)sc3n2)cc(OC)c1OC	?	-17%
21	O=C1NCCN(Cc2ccc(F)cc2)C1=O	6%	-10%
22	CCCCC(=O)OCC(=O)[C@H]1[C@H](C)C[C@H]2[C@@H]3C[C@H](F)C4=CC(=O)C=C[C@]4(C)[C@@]3(F)[C@@H](O)C[C@@]21C	/	-6%
23	CCCCc1nnc(SCc2cc(=O)c3cc(F)ccc3[nH]2)n1C	-11%	?
24	CC1CCCCN1C(=O)c1cc(-c2ccc(Br)cc2)on1 (stereo unspecified)	?	72%[activator]
25	COc1ccc(NC(=O)c2ccc(CN3C(=O)CCn4nc(C)cc43)cc2)c(OC)c1	?	10%
26	Cc1ccc(-c2nc(CNC(=O)NC3CCCCC3)c(C)o2)cc1	-1%	0%
27	CCN(Cc1ccccc1)C(=O)c1cc(-c2ccccc2)n[nH]1	-9%	6%
28	Cc1csc2nc(COc3ccc(NC(=O)COc4ccc(F)cc4)cc3)cc(=O)n12	7%	5%
29	CCOc1ccc(-c2nc(SCC(=O)NC3CCCC3)c(-c3ccccc3)[nH]2)cc1OC	-4%	-10%
30	Cc1cc(Cl)ccc1NC(=O)CN1C(=O)COc2ccc(S(=O)(=O)Nc3ccccc3)cc21	-3%	-8%

By substructure, the compounds so far with a thiophene ring, fused or not.
cpd	canonical_smiles	PMP22 txn prim	HTT prom inh
3	CCN(CC)CCCNC(=O)Cn1nc(C)n2c(cc3sccc32)c1=O	1%	-4%
10	CCCCOc1ccccc1C(=O)N(Cc1sccc1C)C1CCS(=O)(=O)C1 (stereo unspecified)	8%	-18%
15	Cc1ccc(Cn2c(=O)n(CCc3ccccc3)c(=O)c3c(C)c(C)sc32)cc1	8%	-21%

(list continues)
cpd	canonical_smiles	PMP22 txn prim	HTT prom inh
31	Cc1ccc(-n2c(=O)c3c(c4cc(C)ccc4n3C)n(CC(=O)NCC3CCCO3)c2=O)cc1 (stereo unspecified)	-14%	10%
32	CCOC(=O)CNC(=O)c1cc2c(=O)n(CC)c3ccccc3c2s1	-4%	10%
33	Cc1nnc(N2CCC(C(=O)NCCC(C)C)CC2)c2nn(-c3ccc(Cl)cc3)c(C)c12	?	-13%
34	CCc1cccc(-n2c(=O)c3cccnc3n2CC(=O)NCc2ccc(C)cc2)c1	25%	-7%
35	CCCSCCCNC(=O)Cn1c(-c2cccs2)cc2ccccc21	?	?
36	O=C(COc1ccc2ccccc2c1)NC1CC(=O)N(c2ccc(F)cc2)C1 (stereo unspecified)	-29%	6%
37	COC(=O)c1c(NC(=O)c2ccc(Cl)c(Cl)c2)sc2c1CCCC2	-12%	9%
38	Cc1ccc(CNC(=O)c2ccc3nc(SCc4ccc(F)cc4)[nH]c3c2)cc1	-41%	22µM*
39	Cc1ccccc1CS(=O)(=O)CC1Nc2ccc(C(=O)NCc3ccc(Cl)cc3)cc2NC1=O (stereo unspecified)	?	-19%
40	CC(C)NC(=O)CN1C(=O)COc2ccc(S(=O)(=O)N3CCCCCC3)cc21	1%	-16%
41	COc1ccc(Nc2nnc(-c3ccc(C)c(S(=O)(=O)N4CCN(C)CC4)c3)c3ccccc23)cc1	-41%	-1%
42	Cc1ccccc1NC(=O)C(Cc1ccccc1)N1Cc2ccccc2C1=O (stereo unspecified)	-7%	-15%
43	CCc1ccccc1NC(=O)CC(C)S(=O)(=O)c1ccc2c(c1)NC(=O)CO2 (stereo unspecified)	-22%	-8%
44	Cn1cc(CCCC(=O)NCc2ccc(F)cc2)c2ccccc21	20%	-14%
45	Cc1cccc(NC(=O)CSc2nnc3c4ccccc4n(C)c3n2)c1	9%	-7%
46	CCc1ccccc1NC(=O)Cn1cc(C(=O)c2ccncc2)c(=O)c2cc(C)ccc21	-9%	1%
47	Cc1cc(C)c(NC(=O)Cn2nnc(-c3ccccc3)n2)c(C)c1	-16%	1%
48	COc1ccc(C(=O)Nc2ccc(OCc3cc(=O)n4ccsc4n3)cc2)cc1OC	4%	1%
49	Cc1ccc(-n2ncc(C(=O)NCCc3ccsc3)c2C2CCN(C(=O)OC(C)(C)C)CC2)c(C)c1	?	-27%
50	CCCCCOc1ccc(C(=O)N(Cc2ccccc2)C2CCS(=O)(=O)C2)cc1 (stereo unspecified)	-12%	?
51	CCOC(=O)C1CCCN(c2nc3c(S(=O)(=O)c4ccc(Br)cc4)nnn3c3ccsc23)C1 (stereo unspecified)	-24%	5%
52	CC(=O)c1ccc(N2CCN(C(=O)CS(=O)(=O)c3cccc4nsnc34)CC2)cc1	-26%	-21%
53	CN(C)c1ccc(CNC(=O)CCS(=O)(=O)c2ccc3c(c2)oc(=O)n3C)cc1	-32%	-3%
54	CCOC(=O)c1c(C)[nH]c(CCC(=O)NCCCN2CCN(c3ccccc3F)CC2)c1C	?	-14%
55	Cc1cc(N2CCC(C)CC2)nc2ccc(NC(=O)/C=C/c3cccc(Cl)c3)cc12	-49%	2%
56	O=C(Cn1cc(S(=O)(=O)c2ccccc2)c(=O)c2cc3c(cc21)OCO3)Nc1ccc(Cl)cc1	0%	-25%
57	COc1ccc(-n2nc3cc(C)c(NC(=O)COc4cccc(C)c4)cc3n2)cc1	10%	2%
58	O=C(CCS(=O)(=O)c1nc(-c2ccc3c(c2)OCO3)cc(C(F)(F)F)n1)Nc1ccc(F)c(Cl)c1	13µM*	?
59	S=C(NCc1ccc2c(c1)OCO2)N1CCN(c2ncnc3c2oc2ccccc23)CC1	/	?
60	COc1cccc(C(=O)n2nc(-c3ccco3)nc2NCc2cccs2)c1	-10%	9%

Ordered by formula weight (rising): some entries from above.
cpd	canonical_smiles	PMP22 txn prim	HTT prom inh
57	COc1ccc(-n2nc3cc(C)c(NC(=O)COc4cccc(C)c4)cc3n2)cc1	10%	2%
53	CN(C)c1ccc(CNC(=O)CCS(=O)(=O)c2ccc3c(c2)oc(=O)n3C)cc1	-32%	-3%
51	CCOC(=O)C1CCCN(c2nc3c(S(=O)(=O)c4ccc(Br)cc4)nnn3c3ccsc23)C1 (stereo unspecified)	-24%	5%

Additional results.
cpd	canonical_smiles	PMP22 txn prim	HTT prom inh
61	CC(C)C(NS(=O)(=O)c1ccc2c(c1)oc(=O)n2C)C(=O)NCCc1ccc(Cl)cc1 (stereo unspecified)	0%	-5%
62	CC(=O)N1CCc2c(sc3c2c(=O)n(-c2ccccc2Cl)c(=O)n3Cc2cccc(C)c2)C1	?	-32%
63	COc1ccc(CCNC(=O)c2c(C)oc3ncnc(N4CCOCC4)c23)c(OC)c1	-1%	-4%
64	COc1ccc(NC(=O)Cc2csc(COc3cccc(C)c3)n2)cc1OC	?	?
65	CN1CCc2c(sc(NC(=O)CSc3ccc(F)cc3)c2-c2nc3ccccc3s2)C1	?	-17%
66	COC(=O)c1ccc(Nc2ncnc3c2cnn3C)cc1	-2%	-5%
67	CCc1ccccc1NC(=O)CSc1nc(-c2ccccc2OC)nc2c1Cc1c(CO)cnc(C)c1O2	-17%	-18%
68	CCOCCCNC(=O)CN1C(=O)COc2ccc(S(=O)(=O)N3CCOCC3)cc21	-10%	-9%
69	CCN(C(=O)CSc1nc2ccccc2n1CC(=O)Nc1cccc(C#N)c1)c1ccccc1	?	?
70	COc1ccc(CNC(=O)c2cnn(-c3ccc(F)cc3)c2-n2cccc2)cc1	-23%	-31%

Some values from the entries so far.
O=C(COc1ccc2ccccc2c1)NC1CC(=O)N(c2ccc(F)cc2)C1 (stereo unspecified) | PMP22 txn prim = -29%
O=C1NCCN(Cc2ccc(F)cc2)C1=O | PMP22 txn prim = 6%

New compounds follow
cpd	canonical_smiles	PMP22 txn prim	HTT prom inh
71	Cc1ccc2c(c1)cc(C(=O)NCc1ccc(F)cc1)n2C	-6%	7%
72	CCOC(=O)c1c(C)[nH]c(CCC(=O)Nc2c(C)cccc2CC)c1C	-9%	?
73	O=C(NC1(C(F)(F)F)N=C(c2ccccc2)N(C2CCCCC2)C1=O)c1ccccc1F (stereo unspecified)	0%	-43%[11.5 µM]
74	O=S(=O)(Nc1ccc(Br)cc1)c1ccc2nc(-c3ccccc3)[nH]c2c1	?	?
75	COc1ccc(-c2cc(C(F)(F)F)nc(SCCC(=O)Nc3ccccc3F)n2)cc1	-13%	-3%
76	CCOC(=O)Cn1c(=O)oc2cc(S(=O)(=O)N3CCN(c4cccc(Cl)c4)CC3)ccc21	-11%	-14%
77	Cc1ccc(-c2nnn3c2nc(NCCc2ccccc2)c2ccccc23)cc1	2%	-2%
78	O=C(CCC1N=C2c3ccccc3N=C(SCc3ccc(F)cc3)N2C1=O)NCc1cccs1 (stereo unspecified)	34%	1%
79	COc1ccc(-c2cc(C)no2)cc1S(=O)(=O)NCc1cccs1	-26%	?
80	CCCCNc1nc2c(c(=O)n(Cc3ccc(Cl)cc3)c(=O)n2C)n1C	?	?
81	COCCCNC(=O)CSc1nc(-c2cccc(F)c2)[nH]c1-c1ccccc1	-6%	-23%
82	COc1ccc(OC)c2sc(N3CCN(C(=O)c4ccc5c(c4)CCCC5)CC3)nc12	?	0%
83	COc1cccc(CNS(=O)(=O)c2ccc(-c3cc(C(F)(F)F)on3)s2)c1	?	-6%
84	COc1ccc(S(=O)(=O)NCC(c2ccc(N(C)C)cc2)N2CCCC2)cc1 (stereo unspecified)	2%	-5%
85	C=CCc1ccc(OCc2ccc(C(=O)Nc3ccc(NC(C)=O)cc3)o2)c(OC)c1	2%	?
86	CCC(=O)Nc1ccc(C)cc1-c1nc2ccccc2n(C(C)C(=O)Nc2ccccc2CC)c1=O (stereo unspecified)	?	-23%
87	Cn1c(=O)cc(SCC(=O)N2CCN(c3ccccc3F)CC2)c2cc(Cl)ccc21	?	-5%
88	Cc1ccc(-c2nc3cc(C(C)C)ccc3o2)cc1NC(=O)c1cc([N+](=O)[O-])ccc1N1CCOCC1	-46%	?
89	Cc1ccc(CN2C(=O)c3ccccc3CC2(C)C(=O)NC2CCCCC2)cc1 (stereo unspecified)	12%	-17%
90	CCN(CC)C(=O)C1CCN(S(=O)(=O)c2ccc3c(c2)CCCN3C(C)=O)CC1	0%	?
91	Cc1ccccc1Nc1c(-c2ccc(N3CCOCC3)cc2)nc2ccc(Br)cn12	-22%	13%
92	COc1cccc2c1C(=O)c1c(O)c3c(c(O)c1C2=O)C[C@@](O)(C(=O)CO)C[C@@H]3O[C@H]1C[C@H](N)[C@@H](O)[C@H](C)O1	/	?
93	CC1(C)O[C@@H]2C[C@H]3[C@@H]4C[C@H](F)C5=CC(=O)C=C[C@]5(C)[C@H]4[C@@H](O)C[C@]3(C)[C@]2(C(=O)CO)O1	/	-3%
94	CCc1ccccc1Nc1nn2c(=O)c3ccc(C(=O)Nc4ccc(OC)cc4)cc3nc2s1	?	-25%
95	COc1cccc(OC(=O)CSc2nnc(-c3ccccc3OC)o2)c1	-29%	-11%
96	COc1cccc(CNS(=O)(=O)c2ccc3c(c2)CCN3C(=O)C2CCC2)c1	?	-22%
97	COc1cccc(CNC(=O)c2cc3cc(C)ccc3n2C)c1	0%	-19%
98	CC(C)c1ccc(NC(=O)Cn2c3ncccc3c(=O)n2-c2ccccc2)cc1	16%	-14%
99	O=C(CCCN1C(=O)c2cccnc2Oc2ccc(Cl)cc21)NCc1ccccc1F	-5%	-9%
